High-throughput results deposited in PubChem by National Center for Advancing Translational Sciences (NCATS).
IMPase Li inh: qHTS Assay for Identifying the Cell-Membrane Permeable IMPase Inhibitors: Potentiation with Lithium; CHO-M1 cells, IP1 TR-FRET (IP-One), carbachol + lithium; Potency, µM (doses to about 59.4 µM), inactives show at the top dose activity, negative = IMPase inhibition, actives largely listed as inhibitors; hit rate 0.35% among 210,000;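 note: IP1 builds up when IMPase is blocked and the TR-FRET signal falls; potency is the fitted concentration of half-maximal effect; plate controls were basal vehicle for no effect and high inhibitor control for full effect; nearly all actives have a fitted effect of over 50% in size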
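CHO cells stably expressing M1 receptor (2000/well, cultured 16–30 h) treated 30 min at 37C with compound plus low lithium. Cytosolic IP1 by TR-FRET (665/620 ratio and 620 channel) after 10 min lysis; AC50 by Hill fit.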
LMNA splice mod: qHTS Assay for Modulators of Lamin A Splicing | HeLa LMNA splicing GFP/RFP minigene ratio, 48 h | Potency, µM (doses to about 46.1 µM), without a hit: at the highest dose ratio change, negative = inhibition, usual class: inhibitors | hit rate 0.01% among 200,000; active = well fitted inhibition curve with a large enough effect in the signal ratio, with a control signal flat, not every such curve was filed as active; inconclusive = small, poorly fitted or top-dose-only effect, or effect the other way, or a change in a side signal; the % refers to the signal ratio; note: potency is the fitted concentration of half-maximal effect; % is set by controls: 0 for no effect and ±100 for the full control effect
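Read-out is the ratio of GFP to DsRed2 object intensity, acquired by 488 nm laser-scanning cytometry on HeLa lamin A-EGFP minigene reporter cells. Compound incubation 48 hrs at 37 °C in Opti-MEM with 2% FBS; DMSO 0.5% final.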
GLA spleen mod: qHTS Assay for Inhibitors and Activators of Human alpha-Galactosidase From Spleen Homogenate. human spleen homogenate, 4MU-alpha-Gal fluorescence, 40 min. AID 2107, 2009. Potency, µM (series often up to 80 µM), without a hit: top-dose activity change, negative = inhibition, hits mostly inhibitors. hit rate 0.008% among 240,000. Alpha-galactosidase A (Homo sapiens), P06280;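 note: potency is the fitted concentration of half-maximal effect; 0% = enzyme with vehicle and -100% = no enzyme basal signal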
Target sequence (P06280 32-429 limits assumed): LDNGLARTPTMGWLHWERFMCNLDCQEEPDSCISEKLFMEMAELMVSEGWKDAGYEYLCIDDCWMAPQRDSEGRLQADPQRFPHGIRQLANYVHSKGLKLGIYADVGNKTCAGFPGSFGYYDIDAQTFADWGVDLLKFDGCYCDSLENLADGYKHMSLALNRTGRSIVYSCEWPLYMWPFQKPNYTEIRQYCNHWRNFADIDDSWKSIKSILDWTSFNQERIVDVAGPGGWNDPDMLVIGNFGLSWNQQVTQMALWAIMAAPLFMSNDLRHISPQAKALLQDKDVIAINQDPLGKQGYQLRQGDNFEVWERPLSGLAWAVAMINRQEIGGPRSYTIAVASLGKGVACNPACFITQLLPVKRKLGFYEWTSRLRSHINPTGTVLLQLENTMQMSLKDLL
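Inhibition or activation of alpha-galactosidase in human spleen homogenate is scored by 4-MU fluorescence after 40 min at 37C, pH 5.0, with 1 mM substrate. AC50s come from concentration-response fitted to the Hill equation.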
Epigenetic reg: Quantitative High-Throughput Screen for Regulators of Epigenetic Control | murine LDR cells, GFP reporter derepression, 30 h | AID 1865, 2009 | hit rate 0.2% among 280,000 | Potency, µM (titrated, usually from 53.9 µM), for inactives: top-dose GFP activation, hits mostly activators; note: potency is the fitted concentration of half-maximal effect; % of control where 0% means no effect; nearly all actives have a fitted effect of over 60% in size
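In this reporter-derepression format, murine cells bearing a silenced integrated CMV-GFP locus incubate with test compound (30 h, 37 C), then are washed and imaged; fluorescent objects of 20–120 um count as induced cells.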
KinaseGlo FLuc: Counterscreen for Luciferase (Kinase-Glo TM) Inhibition; Luciferin 4-monooxygenase (Photuris pensylvanica), Q27757; Kinase-Glo luciferase, ATP luminescence, 8 min; Potency, µM (highest dose often 38.3 µM), inactives show at the highest dose activity change, negative = inhibition, hits mostly inhibitors; hit rate 0.28% among 200,000; note: potency is the fitted concentration of half-maximal effect; % is set by controls: 0 for no effect and ±100 for the full control effect; nearly all actives have a fitted effect of over 60% in size
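Compound is pinned into ATP-containing buffer (10 uM ATP, imidazole pH 7.2, 7 mM MgCl2). Kinase-Glo luciferase reagent is then added. Light output is recorded following an 8-min room-temperature incubation.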
CBFb RUNX1 block: qHTS Assay for Compounds Blocking the Interaction Between CBF-beta and RUNX1 for the Treatment of Acute Myeloid Leukemia | 230,000 tested, under 10 active | AID 1477, 2009 | Runt-related transcription factor 1 (Homo sapiens) + Core-binding factor subunit beta … | AlphaScreen CBFb-His/RUNX1-biotin binding, biochemical | Potency, µM (series often up to 59.8 µM), without a hit: at the highest dose activity, negative = inhibition, usual class: inhibitors; note: % of control where 0% means no effect
Target sequence (Q01196 whole entry, looked up): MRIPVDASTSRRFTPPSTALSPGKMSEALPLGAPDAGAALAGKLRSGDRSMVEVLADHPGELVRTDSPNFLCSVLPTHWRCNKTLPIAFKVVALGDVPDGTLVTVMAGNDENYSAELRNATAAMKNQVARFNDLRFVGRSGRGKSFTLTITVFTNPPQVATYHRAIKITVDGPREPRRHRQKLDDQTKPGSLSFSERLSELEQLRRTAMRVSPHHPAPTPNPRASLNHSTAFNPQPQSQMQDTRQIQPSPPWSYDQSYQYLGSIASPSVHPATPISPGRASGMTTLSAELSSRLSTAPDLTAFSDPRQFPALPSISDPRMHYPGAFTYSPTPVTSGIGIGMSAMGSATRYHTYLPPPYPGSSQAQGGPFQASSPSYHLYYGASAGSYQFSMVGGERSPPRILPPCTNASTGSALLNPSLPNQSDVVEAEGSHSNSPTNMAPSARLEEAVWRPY
Target sequence (Q13951 whole entry, looked up): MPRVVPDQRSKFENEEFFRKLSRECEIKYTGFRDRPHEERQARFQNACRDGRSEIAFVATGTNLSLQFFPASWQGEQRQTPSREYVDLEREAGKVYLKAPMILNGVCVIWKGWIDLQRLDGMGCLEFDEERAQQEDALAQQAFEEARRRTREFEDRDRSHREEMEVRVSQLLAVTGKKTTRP
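Compounds were screened at multiple concentrations against a preformed CBF-beta(His)/RUNX1(biotin) complex (30 nM of each) for 15 min at room temperature, followed by 90 min with nickel and streptavidin beads and AlphaScreen reading.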
* = called active by the depositor; u = inconclusive; x = no result given; & = joins results of further samples; [ ] = remark or other dose. Unless noted, calls come from the whole dose curve; as a rule, active = well fitted curve in the direction sought with a large enough effect; inconclusive = small, poorly fitted or top-dose-only effect, or another doubt; inactive = no such curve, though single readings can be large; an effect the other way counts as inactive or inconclusive. Not all compounds are listed; rates above refer to the full screens.

#1 Oc1ccc(C(c2nnnn2C2CCCC2)N2CCc3ccccc3C2)cc1 (centres undefined)
#2 CCn1c(COc2cccc(C)c2)nnc1SCC(=O)Nc1cccc(C(=O)O)c1
#3 O=C(c1ccc2c(c1)OCO2)N1CCN=C1SCc1ccccc1
#4 CCOC(=O)C1CCN(c2c(-c3ccccc3)c3cc(Cl)ccc3[nH]c2=O)CC1
#5 N#CCCN(CCC#N)C(=O)c1ccc2c(c1)OCO2

Screen / compound no.	1	2	3	4	5
IMPase Li inh	13%[38.3 µM]	18%[38.3 µM]	15%	u	20%[38.3 µM]
LMNA splice mod	-1%	3%	u	0%	19%
GLA spleen mod	6%	4%	0%	1%	-3%
Epigenetic reg	-2.0%	-2.1%	-1.0%	4.2%	2.2%
KinaseGlo FLuc	-2%	1%	9%	1%	0%
CBFb RUNX1 block	4%	8%	0%	-1%	7%

#6 COCCNC(=S)N/N=C(\C)c1ccc(Cl)s1
#7 CC1(OC(=O)CCc2ccccc2)C(=O)C=C2C=C(c3ccc(C#N)cc3)N(CC3CC3)C=C2C1=O (centres undefined)
#8 CCOC(=O)N1CCN(C(=O)CSc2nnc(COc3ccc(Cl)cc3)o2)CC1
#9 CC(=O)Nc1c(O)nc(SCC(=O)Nc2sc3c(c2C#N)CCCCCC3)[nH]c1=O
#10 C=CCOc1cccc(C2c3c(oc4ccccc4c3=O)C(=O)N2c2ccccn2)c1 (centres undefined)

Screen / compound no.	6	7	8	9	10
IMPase Li inh	x	9%	10%[38.3 µM]	2%[38.3 µM]	-21%[38.3 µM]
LMNA splice mod	x	-14%[9.22 µM]	u	14%	5%
GLA spleen mod	-2%	1%[17.5 µM]	5%	-1%	4%
Epigenetic reg	u	-0.4%	-1.7%	2.1%	0.2%
KinaseGlo FLuc	x	-8%[7.66 µM]	-1%	1%	2%
CBFb RUNX1 block	1%	-1%[13.1 µM]	10%	-13%	2%

#11 Clc1cccc(Nc2ncnc3c2cnn3-c2ccccc2)c1
#12 COc1ccccc1N1CCN(C(CNS(=O)(=O)c2ccc(C)cc2)c2cccnc2)CC1 (centres undefined)
#13 OCCNc1ncnc2c1c(-c1ccccc1)c(-c1ccccc1)n2Cc1ccco1
#14 Cc1ccc(-n2c(CCc3ccccc3)nnc2SCC(=O)NCc2ccccc2)cc1C
#15 O=C(c1ccc(CSCc2ccccc2F)o1)N1CCN(c2ccc(N3CCOCC3)nn2)CC1

Screen / compound no.	11	12	13	14	15
IMPase Li inh	42%[activator][38.3 µM]	46%[activator][38.3 µM]	18%[38.3 µM]	48%[activator][38.3 µM]	39%[38.3 µM]
LMNA splice mod	u	-16%	4%	2%	-18%
GLA spleen mod	3%	3%	-17%	0%	13%
Epigenetic reg	9.0%	1.5%	7.3%	-3.3%	0.0%
KinaseGlo FLuc	3%	-3%	-1%	-4%	-3%
CBFb RUNX1 block	u	-11%	-9%	-6%	9%

Full records, quoted from the list.
Clc1cccc(Nc2ncnc3c2cnn3-c2ccccc2)c1 across the screens: IMPase Li inh: 42%[activator][38.3 µM]; LMNA splice mod: u; GLA spleen mod: 3%; Epigenetic reg: 9.0%; KinaseGlo FLuc: 3%; CBFb RUNX1 block: u
OCCNc1ncnc2c1c(-c1ccccc1)c(-c1ccccc1)n2Cc1ccco1 across the screens: IMPase Li inh: 18%[38.3 µM]; LMNA splice mod: 4%; GLA spleen mod: -17%; Epigenetic reg: 7.3%; KinaseGlo FLuc: -1%; CBFb RUNX1 block: -9%

The list goes on:
#16 CC(=O)c1cc(C#N)c(N2CCCC2)nc1C
#17 CCCn1c(=O)n(C)c(=O)c2c(SCC(=O)NC34CC5CC(CC(C5)C3)C4)nc(CC(C)C)nc21
#18 Cc1ccc(C)c(N(CC(=O)NC2CCCC2)C(=O)c2cc3cc4cc(C)ccc4nc3s2)c1
#19 CCCOC(=O)c1ccc(OC(=O)c2ccco2)cc1
#20 O=C(Nc1ccccc1N1CCN(C(=O)c2ccc(Cl)cc2)CC1)c1cc2ccccc2o1

Screen / compound no.	16	17	18	19	20
IMPase Li inh	7%	11%	-8%[38.3 µM]	-26%[38.3 µM]	41%[activator][38.3 µM]
LMNA splice mod	x	-10%	-3%	1%	4%
GLA spleen mod	-2%	5%	2%	0%	-4%
Epigenetic reg	-2.6%	1.0%	-0.3%	-2.7%	0.0%
KinaseGlo FLuc	-2%	-1%	-4%	-7%	-2%
CBFb RUNX1 block	-2%	2%	6%	-7%	7%

#21 CC(C)(C)c1nc(N2CCN(C(=O)c3ccco3)CC2)c2nnn(Cc3ccccc3)c2n1
#22 CCCN1C2=C(C(=O)CC(C)(C)C2)C(c2ccc(F)cc2)C2=C1c1ccccc1C2=O (centres undefined)
#23 CC1(C)CC(=O)C(=C2SCCCS2)C(=O)C1
#24 CC12CCC(C(=O)N3CCN(C(c4ccccc4)c4ccccc4)CC3)(OC1=O)C2(C)C (centres undefined)
#25 COC(=O)c1ccc(-c2ccc([C@H]3[C@H]4C=CC[C@@H](C)[C@@H]4C(=O)N3Cc3ccccc3)c(F)c2)cc1

Screen / compound no.	21	22	23	24	25
IMPase Li inh	22%[38.3 µM]	32%[activator][38.3 µM]	1%	33%[38.3 µM]	x
LMNA splice mod	-1%	-5%	-2%	u	x
GLA spleen mod	3%	2%	-3%	-2%	3%
Epigenetic reg	-1.2%	0.0%	1.3%	0.8%	0.0%
KinaseGlo FLuc	2%	14%	1%	0%	x
CBFb RUNX1 block	-8%	-7%	-1%	0%	15%

#26 CCCCOc1ccc2c(c1)/C(=C(\C(Cl)=C(Cl)Cl)[N+](=O)[O-])N2
#27 CN1C(=O)CS(=O)c2ccc(C(=O)NC3CC3)cc21 (centres undefined)
#28 O=C(NCc1cccnc1)C1CC(c2ccc(F)cc2)=NO1 (centres undefined)
#29 CCCCN(CC)c1nc(N)c2c(N)nc(OCC)cc2c1C#N
#30 COc1ccc(CNC(=O)CCSCc2cccc(Cl)c2)cc1

Screen / compound no.	26	27	28	29	30
IMPase Li inh	7%	-8%[38.3 µM]	6%[38.3 µM]	32%[38.3 µM]	1%
LMNA splice mod	x	4%	12%	0%	2%
GLA spleen mod	9%	0%	-1%	17%	10%
Epigenetic reg	-0.3%	0.4%	0.4%	0.5%	0.0%
KinaseGlo FLuc	7%	-3%	-5%	-2%	2%
CBFb RUNX1 block	5%	-4%	2%	14%	1%

#31 O=C(c1nc2ccc(Cl)cn2c1CNCC[C@@H]1C[C@@H]2C=C[C@H]1C2)N1CCCCCCC1
#32 Cc1ccccc1N1C(=O)c2ccccc2N2C(=O)c3ccccc3C12 (centres undefined)
#33 Cc1ccc(Cl)cc1N1CCN(Cc2nnnn2Cc2ccco2)CC1
#34 CC(C)(C)n1nnnc1C(c1cccnc1)N(Cc1ccccc1)Cc1cccs1 (centres undefined)
#35 CC1CCN(CC(=O)Nc2ccc(S(=O)(=O)NC3CC3)cc2)CC1

Screen / compound no.	31	32	33	34	35
IMPase Li inh	21%	57%[activator][38.3 µM]	-4%[38.3 µM]	16%[38.3 µM]	x
LMNA splice mod	x	u	u	20%	x
GLA spleen mod	12%	-1%	-4%	3%	8%
Epigenetic reg	-4.8%	-1.5%	-0.8%	-0.1%	-0.4%
KinaseGlo FLuc	2%	17%	8%	1%	x
CBFb RUNX1 block	-5%	7%	1%	1%	8%

#36 CCOC(=O)c1cc(C(C)=O)c(=O)[nH]c1C
#37 CCOc1ccc(NC(=O)CSc2nnc(Cn3cnc([N+](=O)[O-])n3)n2CC)cc1
#38 O=C1c2oc3ccc(Cl)cc3c(=O)c2C(c2cccc(Br)c2)N1CCO (centres undefined)
#39 O=C(Cc1sc(-c2ccccc2)nc1-c1ccccc1)Nc1ccccc1
#40 COC(=O)CCCC1=CC2=CC(=O)C(C)(OC(=O)CCc3ccccc3)C(=O)C2=CO1 (centres undefined)

Screen / compound no.	36	37	38	39	40
IMPase Li inh	-8%	18%	3%[38.3 µM]	34%[38.3 µM]	19%&-5%
LMNA splice mod	14%[9.22 µM]	-17%[46 µM]	-3%	-8%	x
GLA spleen mod	-10%	-20%	0%	-1%	3%&-3%&16%
Epigenetic reg	2.1%	-2.0%	0.0%	-2.9%	0.0%&-1.1%&-3.3%
KinaseGlo FLuc	0%	1%	-2%	-5%	-6%&-2%
CBFb RUNX1 block	17%	-11%	0%	-2%	-24%&-5%&-22%

#41 Cc1cccc2c1N(CCCOc1ccccc1)C(=O)C2=O
#42 S=C(Nc1ccccc1Oc1ccccc1)Nc1cccc(Cl)c1Cl
#43 COc1ccc(C(=O)N2CCC(n3c(C)nc4cc(F)ccc43)CC2)cc1
#44 O=C(c1ccc(F)cc1)C(CN1CCOCC1)c1ccccc1 (centres undefined)
#45 C1CCC(n2nnnc2CN2CCN(C3CCCC3)CC2)CC1

Screen / compound no.	41	42	43	44	45
IMPase Li inh	-1%[38.3 µM]	30%[activator]	1%	24%[38.3 µM]	-1%[38.3 µM]
LMNA splice mod	-9%	-16%	11%[46 µM]	u	6%
GLA spleen mod	-7%	-4%	1%	-9%	0%
Epigenetic reg	-1.6%	-2.0%	-0.1%	u	2.1%
KinaseGlo FLuc	-1%	0%	-2%	-2%	2%
CBFb RUNX1 block	-2%	1%	3%	1%	6%

#46 CC(C#CCN1CCCCC1)OCCOCc1ccccc1 (centres undefined)
#47 CC1CCN(c2ccccc2NC(=S)NC(=O)C(C)(C)C)CC1
#48 CCOC(=O)CCSc1nc(-c2ccc3c(c2)OCO3)cc(C(F)(F)F)c1C#N
#49 CC(=O)N1NC(=Nc2ccccc2)SC1(C)C
#50 CN(C(=O)c1ccc(COc2ccccc2Br)o1)c1ccccc1

Screen / compound no.	46	47	48	49	50
IMPase Li inh	7%[38.3 µM]	26%	u	15%	5%
LMNA splice mod	-1%	x	2%	-15%[46 µM]	x
GLA spleen mod	9%	10%	8%	3%	1%
Epigenetic reg	-1.4%	-1.5%	-1.1%	-2.9%	0.9%
KinaseGlo FLuc	-3%	-8%	-5%	-2%	2%
CBFb RUNX1 block	7%	3%	-2%	10%	11%

#51 O=C(CN1CCCN(S(=O)(=O)c2ccc(Br)s2)CC1)Nc1ccc(Cl)cc1
#52 N=C1C(c2nc3ccccc3c(=O)[nH]2)=C(O)CN1CCc1ccccc1
#53 CSc1sc(-c2ccnc(SCC(=O)C(C)(C)C)n2)c2c1C(=O)CC(C)(C)C2
#54 CCCOc1nc(N)c(C#N)c(-c2ccccc2F)c1C#N

Screen / compound no.	51	52	53	54
IMPase Li inh	66%[activator][38.3 µM]	11µM*	x	26%[38.3 µM]
LMNA splice mod	u	-6%	x	-2%
GLA spleen mod	-3%	-9%	-9%	-5%
Epigenetic reg	3.2%	-3.1%	6.6%	-0.9%
KinaseGlo FLuc	-2%	16%	x	-5%
CBFb RUNX1 block	4%	3%	0%	7%
